PINK1 modulator: A Quantitative High throughput Screen to Identify Chemical Modulators of PINK1 Expression; Potency, µM (doses to about 76.6 µM), inactives show at the top dose activation (PINK1 increase), actives largely listed as activators; PINK1 immunofluorescence, high-content cytometry, 24 h; AID 624263, 2012; 410,000 tested, 0.2% active; active = well fitted activation curve with a large enough effect; inconclusive = small, poorly fitted or top-dose-only effect; inactive = flat fitted curve, though single readings scatter; cell line not stated here;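 also: % of control where 0% means no effect; nearly all actives have a fitted effect of over 65% in size; a mitochondrial uncoupler was the plate control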
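PINK1 protein, normally rapidly degraded, was detected by immunofluorescence after 24 hour compound treatment of a stable cell line. Titration data (5 concentrations) came from laser-scanning cytometry, with CCCP-treated wells as controls.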
ClpP mod: qHTS Assay for Activators of ClpP. 340,000 tested, 1.9% active. Potency, µM (highest dose often 57.5 µM), inactives show at the top dose activity change, negative = active. purified B. subtilis ClpP, FRET peptide cleavage, 20 min; active = well fitted falling curve with a large enough effect; inconclusive = small, poorly fitted or top-dose-only effect; inactive = no such curve, though single readings can be large or run the other way; also: the source files actives as falling curves though it sought activators and does not explain the sign; nearly all actives have a fitted effect of over 65% in size; many hits overshoot -100%
Target sequence (P80244 whole entry, looked up): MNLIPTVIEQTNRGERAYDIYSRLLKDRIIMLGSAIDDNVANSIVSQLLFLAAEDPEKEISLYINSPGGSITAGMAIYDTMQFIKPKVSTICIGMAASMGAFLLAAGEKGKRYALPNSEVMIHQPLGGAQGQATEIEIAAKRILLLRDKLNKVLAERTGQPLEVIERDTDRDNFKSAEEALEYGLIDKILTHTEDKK
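ClpP 10 microg/mL final, pH 8 Tris/KCl buffer with BSA, glycerol, Tween-20; compound pinned in; FRET-FV substrate; RT 20 min; Ex320/Em430; ΔFRET vs ADEP 5.8 microM, DMSO, no enzyme.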
Numbers without * were called inactive. Potency is read from the fitted curve at half-maximal effect. These rows are one share of the data; count on the stated rates, not on these rows.

CCOC(=O)c1c(S(=O)(=O)N2CCC(C(=O)Nc3ccc(C)c(Cl)c3)CC2)c(C)n(C)c1C was read as PINK1 modulator 4.4% and ClpP mod 1.3%.
`CCOC(=O)c1c(C)n(-c2ccccc2)c2ccc(OC(=O)c3ccccc3)cc12` gave PINK1 modulator 3.1% and ClpP mod -7.3%.
Screening COc1ccc(C2(Nc3cccc(C(=O)O)c3C)C(=O)c3ccccc3C2=O)cc1 returned PINK1 modulator 1.7% and ClpP mod -4.2%.
COc1ccc(-c2nc3ccccc3o2)cc1NC(=O)c1cccnc1 was read as PINK1 modulator -0.2% and ClpP mod -2.4%.
COc1cc(OC)c(NC(=O)c2cn(C)c(=O)c3cc(OC)c(OC)cc23)cc1Cl was read as PINK1 modulator 0.0% and ClpP mod -2.3%.
For CCOc1ccc(NC(=O)CC2C(=O)OCCN2CC)cc1 (stereo not given) the results were PINK1 modulator 1.2% and ClpP mod -0.9%.
Screening O=C(CSCc1cnn(-c2ccccc2)c1-n1cccc1)Nc1ccc(F)cc1F returned PINK1 modulator 1.5% and ClpP mod -0.5%.
Screening CCOc1ccc(NC(=O)c2oc3ccccc3c2NC(=O)C(C)(C)C)cc1 returned PINK1 modulator 0.4% and ClpP mod -12.6%.
Screening CCC(C)NC(=O)c1ccc2c(c1)N(Cc1ccccc1)C(=O)c1ccccc1S2(=O)=O (stereo not given) returned PINK1 modulator 0.6% and ClpP mod -0.2%.
Screening CCOc1ccc(N(CC)S(=O)(=O)N2CCCC(C(=O)NCc3ccccc3OCC)C2)cc1 (stereo not given) returned PINK1 modulator 2.6% and ClpP mod 0.9%.
For CC(=O)Nc1ccc(OCc2cc(=O)n3ccccc3n2)cc1 the results were PINK1 modulator 1.5% and ClpP mod -5.2%.
For Cn1c(=O)c2c(-c3ccc(Cl)cc3)n(Cc3ccc(Cl)cc3)cc2n(C)c1=O the results were PINK1 modulator -0.5% and ClpP mod 10µM*.
`COc1ccc2cc(-c3nc4ccc(C(=O)O)cc4[nH]3)c(=O)oc2c1` gave PINK1 modulator -0.4% and ClpP mod 4.1%.
For COCCCNC(=O)CCc1c(C)nc2cc(-c3ccc(Cl)cc3)nn2c1C the results were PINK1 modulator 3.7% and ClpP mod -10.9%.
For COC(=O)CN1C(=O)CSc2ccc(S(=O)(=O)Nc3c(C)cc(C)cc3C)cc21 the results were PINK1 modulator 3.3% and ClpP mod 0.2%.
`CCc1ccc(S(=O)(=O)c2cn(CC)c3cc(N4CCOCC4)c(F)cc3c2=O)cc1` gave PINK1 modulator 2.0% and ClpP mod inconclusive.
`CCCCN(CC)CCCNC(=O)c1cn(CC)c2ccc(S(=O)(=O)N3CCOCC3)cc2c1=O` gave PINK1 modulator 0.5% and ClpP mod -4.7%.
For COc1cc(C)ccc1OCCSc1nc2ccc(NC(C)=O)cc2s1 the results were PINK1 modulator -0.4% and ClpP mod -7.3%.
COc1cc(Cl)c(C)cc1NC(=O)Cn1c2ncccc2c(=O)n1-c1ccccc1 was read as PINK1 modulator 0.1% and ClpP mod inconclusive.
`Cc1ccc(-c2nc3cccnc3s2)cc1NC(=O)Cc1ccccc1` gave PINK1 modulator -0.4% and ClpP mod inconclusive.
For COCC(C)NC(=O)c1cnn2c(C(F)F)cc(-c3ccccc3)nc12 (stereo not given) the results were PINK1 modulator -0.6% and ClpP mod -5.4%.
CCc1cccc(C)c1Nc1c(-c2ccc(N3CCOCC3)cc2)nc2ncccn12 was read as PINK1 modulator -1.0% and ClpP mod 2.0%.
CCOc1ccc(CNC(=O)C2CCN(S(=O)(=O)c3ccc4c(ccn4C)c3)CC2)cc1 was read as PINK1 modulator -0.3% and ClpP mod -22.2%.
For Cc1cccc(NC(=O)C2CCCN(S(=O)(=O)c3c(C)[nH]c(=O)[nH]c3=O)C2)c1C (stereo not given) the results were PINK1 modulator -0.4% and ClpP mod -0.2%.
Screening CCc1ccc(NC(=O)CCS(=O)(=O)c2ccc3c(c2)oc(=O)n3C)cc1 returned PINK1 modulator 2.2% and ClpP mod 0.9%.
Screening CCN(CC)c1cc(C)c2cc(NC(=O)/C=C/c3ccccc3Cl)ccc2n1 returned PINK1 modulator 1.1% and ClpP mod -1.8%.
`COc1ccc(CCNC(=O)Cn2c(=O)n(-c3ccccc3)c(=O)c3c(C)c(C)sc32)cc1OC` gave PINK1 modulator 0.7% and ClpP mod -5.9%.
Screening COC(=O)c1c(-c2ccc(Cl)cc2)noc1N1CCN(c2ccc(OC)cc2)CC1 returned PINK1 modulator 1.9% and ClpP mod -0.3%.
`CC(C)NC(=O)c1ccc2c(c1)nc1n2CCCCC1` gave PINK1 modulator 0.9% and ClpP mod -0.9%.
Cc1cc(C)cc(Oc2nc3c(C)cccn3c(=O)c2/C=C(\C#N)c2nc3ccccc3s2)c1 was read as PINK1 modulator 1.4% and ClpP mod -3.8%.
For Cc1cccc(Cn2c(SCc3ccc(C(=O)NC4CCCC4)cc3)nc3cccnc32)c1 the results were PINK1 modulator 0.8% and ClpP mod 4.4%.
`O=C(NCc1ccccc1)c1cccn1-c1nnc(N2CCCCC2)s1` gave PINK1 modulator -0.5% and ClpP mod -6.2%.
`COc1cc2[nH]c(=O)n(Cc3ccc(C(=O)NCc4ccc(C)cc4)cc3)c(=O)c2cc1OC` gave PINK1 modulator 4.8% and ClpP mod 10µM*.
Screening COc1cccc(NC(=O)c2oc3ccccc3c2NC(=O)c2ccccc2C)c1 returned PINK1 modulator 5.9% and ClpP mod 3.7%.
`CCOc1ccc(NC(=O)C(C)n2c(=O)cc(-c3ccccc3)c3c(C)nn(C)c32)cc1` (stereo not given) gave PINK1 modulator 2.0% and ClpP mod -9.5%.
Screening COC(=O)c1ccc(Cn2nnc3sc4c(c3c2=O)CCC(C)C4)cc1 (stereo not given) returned PINK1 modulator -0.6% and ClpP mod -8.1%.
CC1CCN(S(=O)(=O)c2ccc3c(c2)oc(=O)n3CC(=O)NCc2ccc(F)cc2)CC1 was read as PINK1 modulator -1.9% and ClpP mod -3.1%.
For COc1ccc(NC(=O)C(NC(=O)C2CCC(C)CC2)C(C)C)cc1 (stereo not given) the results were PINK1 modulator 0.2% and ClpP mod 0.2%.
Screening Cc1cc(SCC(=O)NCc2ccc(F)cc2)nc(=O)[nH]1 returned PINK1 modulator 0.7% and ClpP mod 0.4%.
`COCCNC(=O)C(=O)NCC(c1ccc2c(c1)OCO2)N1CCOCC1` (stereo not given) gave PINK1 modulator -0.3% and ClpP mod -0.2%.

Filtered by structure, the compounds so far containing two or more sulfur atoms (2)
For COC(=O)CN1C(=O)CSc2ccc(S(=O)(=O)Nc3c(C)cc(C)cc3C)cc21 the results were PINK1 modulator 3.3% and ClpP mod 0.2%.
For COc1cc(C)ccc1OCCSc1nc2ccc(NC(C)=O)cc2s1 the results were PINK1 modulator -0.4% and ClpP mod -7.3%.

Next section.
Screening COc1ccc(NCc2cc3cc4c(cc3n(CC(=O)Nc3ccc(C)cc3C)c2=O)OCO4)cc1 returned PINK1 modulator -1.0% and ClpP mod 4.2%.
COc1ccc(-c2nc(C)c(CCNC(=O)c3cccc(C)c3)s2)cc1OC was read as PINK1 modulator 0.6% and ClpP mod 3.4%.
Screening Cc1cccc(NC(=O)CN2C(=O)CSc3ccc(S(=O)(=O)N4CCCC4)cc32)c1C returned PINK1 modulator 1.0% and ClpP mod 0.8%.
COCCn1c(SCC(=O)c2c(C)[nH]c3ccccc23)nc2cc(C(=O)NC(C)C)ccc2c1=O was read as PINK1 modulator -0.4% and ClpP mod -2.5%.
For COC(=O)c1sccc1S(=O)(=O)N1CCN(c2cc(Cl)ccc2C)CC1 the results were PINK1 modulator 3.5% and ClpP mod 0.0%.
`CCC(Cc1ccccc1)NC(=O)c1ccc2nc(N3CCC(C)CC3)sc2c1` (stereo not given) gave PINK1 modulator 2.1% and ClpP mod -5.7%.
`CCCCN(CC)C(=O)CSc1c2c(nc3ccc(Cl)cc13)CCCC2` gave PINK1 modulator 4.6% and ClpP mod -3.8%.
`Cc1ccc(C(=O)CSc2nnc(-c3ccccc3)n2-c2ccccc2)cc1` gave PINK1 modulator 0.3% and ClpP mod 1.3%.
For CCN(CC)C(=O)Cn1c(=O)n(-c2ccc(Cl)cc2)c(=O)c2c3c(sc21)CCCCC3 the results were PINK1 modulator 0.1% and ClpP mod 0.4%.
`Cc1ccc(C)c(CN2C(=O)c3ccccc3Sc3ccc(C(=O)NCc4ccco4)cc32)c1` gave PINK1 modulator -0.5% and ClpP mod -2.7%.
Screening CCCCOc1ccc(CNC(=O)c2cc3n(n2)CCCN(Cc2ccc(C)cc2)C3=O)cc1 returned PINK1 modulator 3.8% and ClpP mod 0.0%.
Screening CCOC(=O)CNC(=O)c1ccc(-c2nn(C)c(=O)c3ccccc23)cc1 returned PINK1 modulator -0.2% and ClpP mod -1.8%.
For CCCN(CCC)CCNC(=O)c1sc2nc3n(c(=O)c2c1C)CCCCC3 the results were PINK1 modulator -0.1% and ClpP mod -1.7%.
For COC(=O)c1cc2occc2n1CC(=O)Nc1ccc(C(C)C)cc1 the results were PINK1 modulator 3.3% and ClpP mod -2.5%.
Screening CC(=O)c1ccc(N2C(=O)Nc3ccccc3S2(=O)=O)cc1 returned PINK1 modulator 1.4% and ClpP mod 0.3%.
`COc1ccc(CCC(=O)NCCc2csc(-c3ccc(Cl)cc3)n2)cc1` gave PINK1 modulator 1.8% and ClpP mod 11.3%.
For Cc1cc(C)cc(-n2c(SCC(N)=O)nc3c([nH]c4ccccc43)c2=O)c1 the results were PINK1 modulator -3.0% and ClpP mod 3.9%.
Screening COc1cccc(C2C(=O)N(C3CCCCC3)CC(=O)N2Cc2ccc(Cl)cc2)c1 (stereo not given) returned PINK1 modulator 3.1% and ClpP mod 1.7%.
Screening COc1ccc(CCC(=O)NC2CC(=O)N(c3cccc(F)c3)C2)cc1 (stereo not given) returned PINK1 modulator 0.0% and ClpP mod 1.0%.
`COc1ccc(-n2ccn(Cc3ccc(C)cc3)c(=O)c2=O)cc1OC` gave PINK1 modulator -0.1% and ClpP mod -3.6%.

By substructure, the compounds so far containing a furan ring, fused or not.
Screening CCOc1ccc(NC(=O)c2oc3ccccc3c2NC(=O)C(C)(C)C)cc1 returned PINK1 modulator 0.4% and ClpP mod -12.6%.
Screening COc1cccc(NC(=O)c2oc3ccccc3c2NC(=O)c2ccccc2C)c1 returned PINK1 modulator 5.9% and ClpP mod 3.7%.
`Cc1ccc(C)c(CN2C(=O)c3ccccc3Sc3ccc(C(=O)NCc4ccco4)cc32)c1` gave PINK1 modulator -0.5% and ClpP mod -2.7%.
For COC(=O)c1cc2occc2n1CC(=O)Nc1ccc(C(C)C)cc1 the results were PINK1 modulator 3.3% and ClpP mod -2.5%.

For convenience, some entries already given.
Screening COc1ccc(CCC(=O)NC2CC(=O)N(c3cccc(F)c3)C2)cc1 (stereo not given) returned PINK1 modulator 0.0% and ClpP mod 1.0%.
`COc1ccc(-n2ccn(Cc3ccc(C)cc3)c(=O)c2=O)cc1OC` gave PINK1 modulator -0.1% and ClpP mod -3.6%.

More compounds:
Screening Cc1ccc2cccc(NC(=O)C(C)Oc3ccc(C)c(C)c3)c2n1 (stereo not given) returned PINK1 modulator 9.6% and ClpP mod inconclusive.
`CCN1C(=O)C(Cc2nc3ccccc3c(=O)n2-c2cccc(C)c2)c2ccccc21` (stereo not given) gave PINK1 modulator 2.5% and ClpP mod -7.7%.
`COc1cccc(CNC(=O)c2cc3n(n2)CCCN(Cc2ccc(C)cc2)C3=O)c1OC` gave PINK1 modulator 0.3% and ClpP mod 0.2%.
For CCOc1ccc(-c2cc3c(=O)n(CC(=O)NCc4ccccc4)ccn3n2)cc1 the results were PINK1 modulator 0.5% and ClpP mod -20.8%.
For COc1ccc(CC(=O)NCCc2csc(-c3ccc(C(F)(F)F)cc3)n2)cc1 the results were PINK1 modulator -1.0% and ClpP mod 6.3%.
Screening CCOc1ccc(-c2cccc(NS(=O)(=O)c3ccc(C)s3)c2)nn1 returned PINK1 modulator 2.4% and ClpP mod 1.7%.
For Cn1c(=O)c2sccc2n2c(CCCC(=O)Nc3ccc(Cl)cc3)nnc12 the results were PINK1 modulator -0.3% and ClpP mod -1.2%.
Screening CC(C)c1ccc(NC(=O)c2cc(S(=O)(=O)N3CCCCC3)cn2C)cc1 returned PINK1 modulator 6.2% and ClpP mod 11.5%.
Screening CNC(=O)c1c(NC(=O)c2cc(=O)c3ccccc3o2)sc2c1CCC2 returned PINK1 modulator -4.7% and ClpP mod -0.8%.
`Cc1ccc(C(c2sc3nc(-c4ccco4)nn3c2O)N2CCOCC2)cc1` (stereo not given) gave PINK1 modulator 1.0% and ClpP mod 0.5%.
For COc1ccc(C)cc1NS(=O)(=O)c1ccc2c3c(cccc13)C(=O)N2 the results were PINK1 modulator 2.4% and ClpP mod 0.7%.
COc1cccc(C2CC(=O)Nc3c2c(=O)nc2c(C)cccn32)c1 (stereo not given) was read as PINK1 modulator -0.1% and ClpP mod -0.5%.
CCOC(=O)N1CCN(C(=O)C[C@@H]2C[C@@]3(C(=O)OC)CCCCC=C3N(Cc3ccco3)C2=O)CC1 was read as PINK1 modulator 0.1% and ClpP mod 2.2%.
Screening CCOC(=O)c1c(C)oc2ncnc(Nc3ccc(OC)cc3OC)c12 returned PINK1 modulator 2.4% and ClpP mod 0.5%.
For CCOc1ccc(-c2cnc(NCc3cccc(Cl)c3)n2C)cc1 the results were PINK1 modulator 1.3% and ClpP mod -4.0%.
